Bioassay records deposited in PubChem BioAssay by National Center for Advancing Translational Sciences (NCATS).
PK Bst = alters activity of Bacillus stearothermophilus pyruvate kinase; partly purified Bacillus stearothermophilus pyruvate kinase, luminescence ATP production; ribose 5-phosphate activator present at AC10; Potency, µM; 51,000 tested, 1.2% active; in the data active means potency below about 11 µM; inconclusive means mostly about 12 µM to 25 µM; inactive means weaker than that;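 the screen sought inhibitors and activators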;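 also: potency is read from the fitted curve at half-maximal effect; scaled between full activation by ribose 5 phosphate and full inhibition by luteolin; about four in five hits inhibit and the cells do not say which; series up to 57 µM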
YjeE inh = YjeE (TsaE) inhibition, E. coli. P0AF67. purified YjeE, fluorescence polarisation of a bound ADP probe. Potency, µM. 71,000 tested, 0.05% active. AID 605; active = well fitted falling curve; inconclusive = weaker or top-dose-only fall, or a rising curve; inactive = flat or poorly fitted curve;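 also: top concentration of the series not given in the record; excess ADP was the control for the full effect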
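Purified YjeE (10 uM) with BODIPY Texas Red-labeled ADP probe (2 uM); compounds pin-transferred, 15 min at room temperature. Binding inhibition read as decreased fluorescence polarization; ADP titration as control.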
Numbers without * were called inactive; i = inactive; ? = inconclusive; . = not tested or not shown; & = joins results of further samples. These rows are one share of the data (hit frequency here may not be typical).

| smiles | PK Bst | YjeE inh |
| --- | --- | --- |
| CCOC(=O)c1c(NC(=O)CN2CCN(c3ccccn3)CC2)sc2c1CCCC2 | >57 | ? |
| O=C(NCCc1ccccc1)C1CCN(S(=O)(=O)c2cccc3nonc23)CC1 | >57 | i |
| COc1c2occc2cc2ccc(=O)oc12 | . | i |
| Cc1ccc(CCCC(=O)O)cc1C | . | i |
| CN(C)c1ccc(NC(=S)c2ccccn2)cc1 | . | i |
| COc1ccc(C2(CN(C(C)=O)C(C)=O)CCCC2)cc1OC | >25.6 | . |
| COc1ccc(CCNC(=O)c2nnn(CC(=O)Nc3ccccc3)c2N)cc1OC | >57 | i |
| CC1CN(S(=O)(=O)c2cccc(C(=O)OCC(=O)Nc3ccc4c(c3)OCO4)c2)CC(C)O1 (stereo not drawn) | >57 | i |
| CC1(C)CCCN(C(=O)c2coc(=O)c(Br)c2)C1 | >57 | i |
| CCn1c(Cc2cccs2)nnc1SCC(=O)Nc1ccc(OC)c(OC)c1 | >57 | i |
| C/C(CCc1oc2ccccc2c1-c1ccc(C)o1)=N/O | >57 | i |
| CCC(=O)Nc1ccc(C(=O)n2ccc(C)n2)cc1 | >57 | i |
| COCCCn1c(SCC(=O)OC2CCCCC2)nnc1-c1ccco1 | . | i |
| COc1cc(C)c(Cl)cc1S(=O)(=O)N(C)C | >57 | i |
| NCCNCC1CCNCC1 | . | i |
| COC(=O)c1[nH]c(C)c(/C(O)=C2\C(=O)C(=O)N(CCN(C)C)C2c2cc(OC)ccc2OC)c1C (stereo not drawn) | >57 | i |
| O=C(CN(Cc1ccccc1)S(=O)(=O)c1ccccc1)NC1CC1 | . | i |
| CCCc1cc(Nc2cccc(OC)c2)n2ncnc2n1 | >57 | i |
| COc1cc(CNCCO)ccc1OCC(=O)Nc1ccc(Br)cc1 | >57 | i |
| N#Cc1ccccc1Cn1c(-c2cscn2)nc2ccccc21 | . | i |
| CS(=O)(=O)N1CCC[C@@]2(CCN(Cc3ccc(C#N)cc3)C2)C1 | . | i |
| COc1cccc(-c2ccc3ncnc(Nc4ccccc4)c3c2)c1 | . | i |
| CC(C)Cn1c(Br)nc2c1c(=O)n(CCC#N)c(=O)n2C | >57 | i |
| CN1CCN(c2ncncc2-c2ccc(C(=O)N(C)C)cc2)CC1 | . | i |
| CN(Cc1ccco1)c1ncnc2ccc(-c3ccc4c(c3)OCO4)cc12 | . | i |
| CCOC(=O)c1sc(N(Cc2ccccc2)C(=O)CN2C(=O)CN(C)C2=O)nc1C | >57 | i |
| c1cc(C(c2nnnn2C2CCCC2)N2CCOCC2)ccn1 (stereo not drawn) | >57 | i |
| O=C(O)CSc1c2c(nc3cc(C(=O)N4CCOCC4)ccc13)CCCC2 | >57 | i |
| Cc1cc(OCC(=O)NCCN2CCOCC2)cc(C)c1Br | . | i |
| N#Cc1cccc(-c2nc(NCc3ccccc3)c3ccccc3n2)c1 | . | i |
| COc1cccc(NC(=O)c2ccc3c(c2)N(CC(=O)N2CCCCC2)C(=O)C(C)(C)O3)c1 | >57 | i |
| Cn1c(=O)c2c(nc(NCc3ccc4c(c3)OCO4)n2Cc2ccccc2F)n(C)c1=O | >25.6 | . |
| COc1ccccc1N(C(C)=O)C1SC(=O)N(c2ccccc2)C1=O (stereo not drawn) | >11.4 | i |
| CCCCn1c(SCc2c(C)noc2C)nc2cc(S(N)(=O)=O)ccc21 | >57 | i |
| CCC/C=C(\CCC)C(NS(=O)(=O)c1ccccc1)c1ccc(C(F)(F)F)cc1 (stereo not drawn) | . | i |
| CCC(C)N(C(=O)COC(=O)c1cn(CC)c2nc(C)ccc2c1=O)C1CCS(=O)(=O)C1 (stereo not drawn) | >57 | i |
| CCOC(=O)N1CCN(S(=O)(=O)c2ccc(OC)c(Cl)c2)CC1 | >57 | i |
| O=C1CN(c2nc3ccccc3n3cnnc23)CC(=O)N1CCc1ccccc1 | . | i |
| CC1CCCC(C)N1S(=O)(=O)c1ccc(NC(=O)c2ccccc2C(=O)N2CCOCC2)cc1 (stereo not drawn) | >57 | i |
| c1ccc(-n2nnnc2-n2cnc3ccccc32)cc1 | >57 | i |
| CCNc1ccc(C(=O)OCC)cc1NC(=O)c1cccc(S(=O)(=O)N2CCOCC2)c1 | >57 | i |
| COc1ccc([C@@H](Nc2ncccn2)c2cc3c(cc2O)OCO3)cc1 | . | i |
| CCOc1ncccc1C(=O)OCC(=O)Nc1cc(C(=O)OC)ccc1C(=O)OC | >11.4 | i |
| COC(=O)c1ccccc1NC1c2ccccc2C(=O)N1c1cccnc1 (stereo not drawn) | . | i |
| c1ccc(-c2nc(N3CCCCCC3)c3ccccc3n2)nc1 | >57 | i |
| COc1cc(S(=O)(=O)NC2CCCCC2C)ccc1Cl (stereo not drawn) | >57 | i |
| CN(Cc1nc2ccccc2n1C)S(=O)(=O)c1ccc(F)cc1 | >57 | i |
| CN1C(=S)SC(N(O)C(=O)NC2CCCCC2)C1(C)C (stereo not drawn) | >57 | i |
| CC(C)CC(=O)N1CCN(C(=O)CCC2CCCC2)CC1 | . | i |
| C=CCn1c(Cc2cccs2)nnc1SCC(=O)c1cccc(Br)c1 | >57 | i |
| CN(C)CCNc1nc2c(c(=O)[nH]c(=O)n2C)n1CCCc1ccccc1 | . | i |
| Fc1ccc(-c2noc(C3CCN(Cc4cccnc4)CC3)n2)cc1 | >57 | i |
| CCN1CCN(CCCNC(=O)C2CCCN(c3nnc(-n4cccc4)s3)C2)CC1 (stereo not drawn) | >57 | i |
| CCOC(=O)c1cc2c(=O)n3cccc(C)c3nc2n(CCc2ccc(OC)c(OC)c2)c1=N | >57 | i |
| CN(CCNC(=O)Cn1c(=O)sc2ccccc21)Cc1ccccc1 | . | i |
| CCOC(=O)/C=C1\Nc2ccccc2SC1=O | >57 | i |
| Cc1cc(NC(=O)CSc2nc(-c3ccco3)cc(C(F)(F)F)n2)n(-c2ccccc2)n1 | >57 | i |
| CC(=O)N1CCc2cc(C(=O)CN3CCN(c4ccccc4F)CC3)ccc21 | . | i |
| CCOc1cc(C2NC(=O)NC(C)=C2C(=O)OC(C)CC)cc(Br)c1O (stereo not drawn) | . | i |
| CC1(C)OC(=O)C(=CNc2ncccn2)C(=O)O1 | >57 | i |

Reformatted: results already given
CC1CCCC(C)N1S(=O)(=O)c1ccc(NC(=O)c2ccccc2C(=O)N2CCOCC2)cc1 (stereo not drawn)
  PK Bst: >57	YjeE inh: i
c1ccc(-n2nnnc2-n2cnc3ccccc32)cc1
  PK Bst: >57	YjeE inh: i

(more compounds)
| smiles | PK Bst | YjeE inh |
| --- | --- | --- |
| O=C(CCn1c(=S)[nH]c2ccccc2c1=O)N1CCOCC1 | . | i |
| O=C1CN2C(=N1)N(Cc1ccccc1)c1ccccc12 | >57 | i |
| C=CCN1CCN(C(c2cc(OC)ccc2OC)c2nnnn2CC2CCCO2)CC1 (stereo not drawn) | >57 | i |
| Cc1ccc2[nH]c3c(NCCCN4CCCC4=O)ncnc3c2c1 | . | i |
| Cc1c(C2Nc3ccccc3NC3=C2C(=O)CC(C)(C)C3)cnn1C (stereo not drawn) | >25.6&>57 | i |
| CC(O)CO (stereo not drawn) | . | i |
| CCCCNC(=O)Cn1cnc2c(cnn2-c2ccc(C)c(C)c2)c1=O | >57 | i |
| CN(C)Cc1cc(C(C)(C)C)ccc1-c1ccc(C(C)(C)C)cc1CN(C)C | . | i |
| O=C(O)CCNc1cc2ccccc2cc1C(=O)O | . | i |
| Cc1ccc(S(=O)(=O)CCC(=O)Nc2ccc3c(c2)OCO3)cc1 | >57 | i |
| Cc1c(/C(O)=C2/C(=O)C(=O)N(Cc3cccnc3)C2c2cccs2)cnn1-c1ccccc1 (stereo not drawn) | . | i |
| O=C(Nc1cc(C(F)(F)F)ccc1N1CCOCC1)c1cncc(Br)c1 | >57 | i |
| COC(=O)c1ccccc1NC(=O)CSc1nnc(COc2cccc(OC)c2)n1C | >57 | i |
| CCOC(=O)Cn1c2ccccc2c2nc3ccccc3nc21 | . | i |
| CC(C)C(C(=O)Nc1ccc2c(c1)OCCO2)N1C(=O)c2ccccc2C1=O (stereo not drawn) | . | i |
| O=C(Cn1ncc2c(=O)oc3ccccc3c21)N1CCCc2ccccc21 | >57 | i |
| CCOc1cc2[nH]c(=O)n(CCCN3CCCC3=O)c(=O)c2cc1OCC | >57 | i |
| CC(C)(c1cc(Br)c(O)c(Br)c1)c1cc(Br)c(O)c(Br)c1 | . | i |
| Cc1nc(Cc2nnc(SCc3nc(N)nc(Nc4ccccc4C)n3)o2)cs1 | >57 | i |
| CC(=O)c1c(C(C)=O)c(C)n(NC(=O)c2ccccc2O)c1C | >57 | i |
| CCN(CC)CCC(=O)NC(C)(C)Cc1ccc(O)cc1 | >57 | i |
| CCOC(=O)CN1CC23C=CC(O2)C(C(=O)NC2CCCCCC2)C3C1=O (stereo not drawn) | . | i |
| C=CCNc1nc(NC(C)(C)CO)nc(OCC)n1 | >57 | i |
| Cc1nnc2n(-c3ccccc3)c(=O)c3c4c(sc3n12)CC(C)CC4 (stereo not drawn) | >25.6 | . |
| Cc1nc2c(C(=O)NCCC3=CCCCC3)c[nH]n2c(=O)c1Cl | >57 | i |
| Cc1cc2c(cc1C)NC1=C(N2)O[C@H](c2c[nH]c3ccc(COc4ccccc4)cc23)C1=O | . | i |
| Cc1ccc(C(c2nnnn2CCC(C)C)N2CCN(C)CC2)cc1 (stereo not drawn) | >57 | i |
| COC(=O)[C@@]1(Cc2ccccc2)[C@H]2c3cc(C(=O)N4CCCC4)n(CCN4CNCC4=O)c3C[C@H]2CN1C(=O)c1ccccc1 | . | i |
| COC(=O)c1cccc(NC(=O)CSc2nc(C)cc(=O)[nH]2)c1 | >57 | i |
| CCCC1C(C#N)=C(N)Oc2cc(C)n(C)c(=O)c21 (stereo not drawn) | >57 | i |
| CCOC(=O)c1ccc(Oc2nc(NC)nc(OC)n2)cc1 | >57 | i |
| Cc1ccc(-c2noc(CCC(=O)NCc3ccc4c(c3)OCO4)n2)cc1 | >57 | i |
| CCn1cc(C(=O)Nc2cc3c(cc2NC(C)=O)OCCO3)c(=O)c2ccc(C)nc21 | >57 | i |
| COc1c2c(nc3occc13)C(CCC(C)(C)O)(OC)C(O)CC2 (stereo not drawn) | >57 | i |
| O=C(Nc1ccc2oc(-c3ccccc3F)nc2c1)c1cncc(Br)c1 | >57 | i |
| Cc1cc(C)n(-c2nc3ccccc3nc2N2CCCCCC2)n1 | >57 | i |
| c1nnc2c3c4c(sc3ncn12)CCCC4 | >57 | i |
| Cc1nn2c3cc(N4CCOCC4)ccc3nc2c2ccccc12 | 2.65* | i |
| COc1ccc(N2CCN(C(=O)CSc3nnc4nc(C)cc(C)n34)CC2)cc1 | >57 | i |
| CC1CCCN(CC(=O)Nc2ccc(S(=O)(=O)N3CCCCCC3)cc2)C1 (stereo not drawn) | >57 | i |
| O=[N+]([O-])c1ccc(NN=C2c3ccccc3Cc3ccccc32)c([N+](=O)[O-])c1 | . | i |
| Cc1cc(C)n(-c2nc3ccccc3c3nc(C)nn23)n1 | . | i |
| O=C(CNCc1ccco1)Nc1ccccc1-n1cccc1 | >57 | i |
| CCOC(=O)C1CCCN(C(=O)C2CCN(S(=O)(=O)N3CCC4(CC3)OCCO4)CC2)C1 (stereo not drawn) | >57 | i |
| CCCn1nnc2sc3c(c2c1=O)CCC(C)C3 (stereo not drawn) | >57 | i |
| CN1CCc2nc(SCC(=O)Nc3ccc(F)cc3)c(C#N)cc2C1 | >57 | i |
| CN(C)c1ccc2c(c1)OC(N)=C(C#N)C2c1cccc(F)c1 (stereo not drawn) | . | i |
| COc1ccc(S(=O)(=O)N2CCN(C)CC2)c2ccccc12 | . | i |
| COc1ccc(N2CCN(Cc3nc(N)nc(Nc4ccc(C)c(Cl)c4)n3)CC2)cc1 | >57 | i |
| Cc1cc(C2N=C(N)Nc3nc4ccccc4n32)c(C)n1-c1ccccc1Cl (stereo not drawn) | >57 | i |
| O=C(c1ccc(COc2ccccc2Cl)o1)N1CCN(Cc2ccc3c(c2)OCO3)CC1 | >57 | i |
| O=C(Nc1ccccc1C(F)(F)F)c1cc(S(=O)(=O)N2CCC3(CC2)OCCO3)ccc1F | >57 | i |
| CC(=O)c1cccc(-n2nnnc2SCC(=O)Nc2cccc(NC(=O)c3ccco3)c2)c1 | >57 | i |
| COc1ccc(NCc2nnc(SCC#N)n2-c2ccccc2OC)cc1 | >57 | i |
| O=C(Nc1ccc2c(c1)OCO2)C(c1ccccc1)N1CCN(C(=O)c2ccco2)CC1 (stereo not drawn) | >57 | i |
| COc1ccccc1C1C(C(=O)c2sc(C)nc2C)=C(O)C(=O)N1CCN1CCOCC1 (stereo not drawn) | >57 | i |
| CCN(CC)S(=O)(=O)c1cccc(C(=O)Nc2cc(C)nn2-c2nc(C)cc(C)n2)c1 | >57 | i |
| c1ccc(Cn2ncc3c(N4CCCCC4)ncnc32)cc1 | . | i |
| CC(C)(CO)NC(=O)C(c1ccccc1)c1ccccc1 | >57 | i |
| COc1ccc(NC(=O)CN2CCN(S(=O)(=O)c3ccc(C(C)C)cc3)CC2)cc1OC | >57 | i |
| CCCn1c(C)nc2c(NCCN3CCCC3)nc(C)nc21 | . | i |
| Cc1nn(-c2ccccc2)c2sc(-c3n[nH]c(=S)o3)cc12 | . | i |

PK Bst, entries above that show a hit.
| smiles | PK Bst | YjeE inh |
| --- | --- | --- |
| Cc1nn2c3cc(N4CCOCC4)ccc3nc2c2ccccc12 | 2.65* | i |
